Screens as filed in PubChem.
AID504770: growth inhibition of E. coli YBA685, primary screen, V. cholerae RctB inhibitors; 130,000 compounds, 0.27% hits; AID 504770, 2011; z-score (no concentration beside the values); E. coli YBA685 rctB-dependent plasmid, OD600 growth, 3 h; stronger effect = lower value;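 active = z-score under -2 on both plates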;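 note: wells of about 30 µL received 100 nL stock; score is relative to mean and SD of the test wells; the first replicate is given; strong numbers were not always called active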
Ba CapD inh: Bacillus anthracis CapD inhibitors, primary screen, biochemical, fluorescence intensity. 140,000 compounds, 0.23% hits. CapD gamma-glutamyltranspeptidase (Bacillus anthracis Ames Ancestor). z-score (concentration not given with the values). purified CapD enzyme, fluorescence intensity read-out; stronger effect = lower value; some hits fall short of the stated cut;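 active = z-score under -4 in either of two replicates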;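 note: stock transfer was 100 nL into about 40 µL; score is relative to mean and spread of the plate; one replicate is shown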
Active calls of the source: *; / = no result given; & = joins results of further samples. No enrichment for hits; overall some 0.41% were active at least once.

SMILES	AID504770	Ba CapD inh
COc1cccc(N2C(=O)c3cccnc3C2O)c1 (stereo not given)	-0.05	1.36
COc1ccc(O)c(C=NCCc2ccccc2)c1	2.65	-1.15
Cc1ccccc1Nc1nc(N)nc(Cn2cc(C(F)(F)F)ccc2=O)n1	-1.1	/
Cc1nc(C)c(-c2nnc(-c3ccc(Cl)cc3)o2)s1	0.2	5.41
CCOC(=O)C(C)Sc1nnc(-c2ccc(F)cc2)o1 (stereo not given)	-0.9	/
COc1cc2c(cc1OC)C(Nc1ccc(Cl)cc1Cl)=NC(C)(C)C2	/	45.4
CC(C)(C)NC(=O)c1cccc2c1-c1ccccc1C2=O	0.75	-0.17
CC(C)CCCC(C)C1CCC2C3CC=C4CC(OC(=O)C(Cl)C(C)C)CCC4(C)C3CCC12C (stereo not given)	/	-0.275
Cc1nn(-c2ccc(Cl)cc2)c(N)c1C1(O)C(=O)N(C)c2ccccc21 (stereo not given)	1.05	0.7
CN1CCN(CC(=O)N2N=C(c3c(-c4ccccc4)c4cc(Cl)ccc4[nH]c3=O)CC2c2ccccc2)CC1 (stereo not given)	/	1.2
CCN1C(=O)C2(OCCO2)c2ccccc21	/	-0.62
NS(=O)(=O)c1ccc(CNC(=O)CCC(=O)Nc2ccc(Br)cn2)cc1	/	-0.67
Cc1ccc(S(=O)(=O)n2nc(C)c(Sc3ncccn3)c2C)cc1	-0.65	-0.395
CC(C)N(C(=O)c1ccc(-c2nnc(-c3ccccc3)o2)cc1)C(C)C	1.45	-0.185
COc1cc(OC)cc(C(=O)Nc2ccc3oc(-c4ccccc4Br)nc3c2)c1	/	4.85
CC1(C)COP(=S)(C(Nc2ccc([N+](=O)[O-])cc2)c2ccc(O)cc2)OC1 (stereo not given)	/	-0.2
COc1ccc(OC)c(CN2CCN(S(=O)(=O)c3cc(Cl)ccc3Cl)CC2)c1	/	0.395
COc1ccc(C(=O)CN2C(=O)COc3ccccc32)cc1	-0.1	0.215
CCc1cccc(NC(=S)N(CCOC)C(C)c2ccco2)c1 (stereo not given)	-0.85	0.62
CCc1ccc(NC(=O)NCCN2CCc3ccccc3C2)cc1	0.65	3.65
CCC(CO)NC(=O)/C=C/c1ccc(OC)c(OC)c1 (stereo not given)	-0.4	14.1
OCc1ccc(N2CCCC2)cc1F	0.4	-0.455
O=C(O)c1nccnc1C(=O)OCCCc1ccncc1	0.55	1.73
CCc1ccc(C2C3=C(CC(C)(C)CC3=O)OC3=C2C(=O)CC(C)(C)C3)cc1	/	0.265
CCn1c(=S)[nH]c2ccccc21	-0.6	0.5
Remaining list, next part.
SMILES	AID504770	Ba CapD inh
COc1ccc(C2CC(c3cccs3)=NN2C(=O)Cn2nnc(-c3cccnc3)n2)cc1OC (stereo not given)	0.9	/
CC1(CCc2ccccc2)NC(=O)N(CN2CCN(c3ccccc3F)CC2)C1=O (stereo not given)	-0.7	/
Cc1nc(NCc2ccccc2)sc1C(=O)N(C)C	-0.15	/
O=C(COc1ccccc1C(=O)O)Nc1ccccc1F	1.7	1.4
O=C(O)c1ccc2c(c1)NC(=O)C1CCCN21 (stereo not given)	-0.7	0.635
Cc1cc(C)c2nc(NC(=O)Cc3ccccc3)sc2c1	0.55	-0.3
CSc1cccc(NC(=O)C2COc3ccccc3O2)c1 (stereo not given)	-0.2	11.4
CC(=O)N1CCc2cc(S(=O)(=O)CCC(=O)N3CCCc4ccccc43)ccc21	-0.55	-0.12
Cc1cc(C)nc(NS(=O)(=O)c2ccc(NC(=O)CSc3nc4ccccc4s3)cc2)n1	/	-0.15
CCOC(=O)CNc1ccc(I)cc1	/	-0.54
Nc1ccc(C2SCCS2)cc1	/	0.495
COc1ccc(-c2nc3ccccc3o2)cc1NC(=S)NC(=O)CC(C)C	0.35	0.595
CCc1nc2ccccc2c2c1C(=O)N(NC(=O)CC13CC4CC(CC(C4)C1)C3)C2=O	/	-0.81
FC(F)(F)c1cc(-c2ccc3ccccc3c2)nc2cc(C3CC3)nn12	/	0.72
O=c1oc2ccc(Cl)cc2cc1-c1nnc(-c2cccc(Br)c2)o1	/	-0.105
O=C(CN1CCN(Cc2ccc(F)cc2Cl)C1=O)NCc1ccc(Cl)cc1	0.8	0.56
O=C(O)C1C(c2ccccc2)C(C(=O)N2CCCCC2)C1c1ccccc1 (stereo not given)	0.4	/
CCOc1ccc(-c2c(C#N)c(N)nc3sc(C(=O)OC)c(N)c23)cc1	-0.25	/
COc1ccccc1N1C(=O)NC(=O)/C(=C\c2c(OC)ccc3ccccc23)C1=O	/	-0.67
CC(C)(C)c1cc(-c2ccccc2)n[nH]1	1.8	/
O=C(CCN(Cc1ccco1)S(=O)(=O)c1ccc(Cl)cc1)NNC(=O)OCCSCc1ccc2nonc2c1	/	-0.675
COc1ccc(S(N)(=O)=O)cc1C(=O)NCC1CCCO1 (stereo not given)	-1.35	/
CN(C)S(=O)(=O)c1ccc(S(=O)(=O)N(Cc2ccccc2F)C2CC2)cc1	-1.2	/
N#Cc1ccc(Cl)cc1NC(=O)CSc1nnc(-c2c[nH]c3ccccc23)n1CC1CCCO1 (stereo not given)	-0.25	/
Cc1nn(-c2ccccc2)c2sc(C(=O)OCCN3c4cccc5cccc(c45)S3(=O)=O)cc12	1.55	/
More compounds
SMILES	AID504770	Ba CapD inh
Cc1ccccc1CN1C(=O)C(O)(C(C)C(=O)c2ccccc2)c2ccccc21 (stereo not given)	/	-0.195
COc1ccc(/C=C/C(=O)N(C)c2ccccc2C(=O)O)cc1	1.35	/
COc1cc(/C=C2\SC(N(C)c3ccc(O)cc3)=NC2=O)ccc1O	0.35	-0.605
Cc1[nH]c2c(NC(=O)c3cc(Cl)nc(Cl)c3)cccc2c1C	/	-0.87
Cc1nc(N2CCC(C)CC2)c2c(C)c(C(=O)NC3CCCCC3)sc2n1	/	3.55
CC(C)(C)OC(=O)NC1CCN(S(=O)(=O)c2ccc3c(c2)OCCO3)CC1	-0.2	-0.35
Cc1cc(C)c(C(N)=O)c(SCC(=O)N2CCc3ccccc3C2)n1	-0.35	/
CCCC(=O)c1c(O)[nH]c(=O)[nH]c1=O	-0.3	1.5
C=CCN=c1scc(-c2ccco2)n1/N=C/c1c[nH]c2ccccc12	-0.15	/
Cn1c2c(c3ccccc31)/C(=N/OC(=O)C1CCCCC1)CCC2	/	0.45
Cc1cc(C)n(C(CC(=O)O)C(=O)O)n1 (stereo not given)	0.45	0.215
COc1cccc(NC(=O)CSC2=C(C#N)C(c3cccs3)C3=C(CCCC3=O)N2)c1 (stereo not given)	/	5.11
CC(O)c1nc2ccccc2n1CCc1ccccc1 (stereo not given)	1.1	0.1
COc1ccc(CNc2ccc(C(=O)N3CCN(C)CC3)cc2S(=O)(=O)Nc2cccc(OC)c2)cc1	/	1.35
Cc1ccn(CCC(=O)NCCN2CCc3ccccc3C2)n1	1.35	-1.96
Cc1c(NC(=O)c2nn3c(C(F)(F)F)cc(-c4ccco4)nc3c2Cl)c(=O)n(-c2ccccc2)n1C	/	-0.7
CS(=O)(=O)N(CCCCn1c2ccccc2c2ccccc21)Cc1ccco1	1.05	/
CCc1ccc(-n2c(=O)oc3ccc(Cl)cc3c2=O)cc1	0.2	-0.735
C=CCNC(=O)c1cc(Cl)c(=O)n(Cc2cccc(C(F)(F)F)c2)c1	/	0.41
Cc1noc(C)c1C(=O)OCC(=O)N1CCCCC1C (stereo not given)	0.8	/
N#Cc1c(NC(=O)COc2ccc(Cl)cc2Cl)sc2c1CCCCC2	/	-0.36
COC(OC)c1cc(=O)[nH]c(SCC(=O)c2ccc(C)cc2)n1	2.55	-0.165
O=c1c2ccc(-c3n[nH]c(=S)o3)cc2nc2n1CCCCC2	-1	/
Cc1sc(/N=C/c2ccco2)c(C#N)c1C	0.6	0.58
Cn1c(SCCSc2cccc(C(F)(F)F)c2)nnc1-c1ccco1	0.1	/

Individual results from the results shown:
Value for `O=C(O)c1ccc2c(c1)NC(=O)C1CCCN21` (stereo not given) under AID504770: -0.7
Value for `N#Cc1ccc(Cl)cc1NC(=O)CSc1nnc(-c2c[nH]c3ccccc23)n1CC1CCCO1` (stereo not given) under AID504770: -0.25
Value for `CC(O)c1nc2ccccc2n1CCc1ccccc1` (stereo not given) under Ba CapD inh: 0.1
Value for `Cc1ccccc1Nc1nc(N)nc(Cn2cc(C(F)(F)F)ccc2=O)n1` under AID504770: -1.1
Value for `C=CCNC(=O)c1cc(Cl)c(=O)n(Cc2cccc(C(F)(F)F)c2)c1` under Ba CapD inh: 0.41
Value for `CC(=O)N1CCc2cc(S(=O)(=O)CCC(=O)N3CCCc4ccccc43)ccc21` under Ba CapD inh: -0.12
Value for `COc1ccccc1N1C(=O)NC(=O)/C(=C\c2c(OC)ccc3ccccc23)C1=O` under Ba CapD inh: -0.67

Continued:
SMILES	AID504770	Ba CapD inh
COc1ccc(CNC(=O)COc2ccc(C#N)cc2)cc1	0.25	-0.1
CN(C)c1ccc(C2=CC=CC(=C3C=CC(=[N+](C)C)C=C3)O2)cc1	1	0.06
Cc1ccc(CNC(=O)CN2CCC(n3nnc4cc(C)ccc43)CC2)cc1	0.1	/
COC(=O)c1sccc1OC(=O)c1cc2ccccc2oc1=O	0.6	1.12
COc1ccc(C(=O)Nc2nc3c(s2)CC(C)CC3)c(OC)c1 (stereo not given)	0	/
O=C(CSc1ncn[nH]1)c1ccc(Cl)cc1	0.15	/
CCn1cc(-c2ccc3ccccc3n2)c(=S)c2ccccc21	-0.1	-1.59
O=C(Nc1ccccc1)C1C2C=CC(C2)C1C(=O)Nc1ccccc1 (stereo not given)	0.45	0.25
CC(Oc1ccccc1)C(=O)N1CC(=O)Nc2ccc(F)cc2C1c1ccccc1 (stereo not given)	0.6	-0.535
CSc1ncc(C(=O)NCc2cccc(C)c2)c(C)n1	0.9	0.045
O=C1CCc2cc(S(=O)(=O)N3CCCC3C(=O)N3CCN(c4ccc(Cl)cc4)CC3)ccc2N1 (stereo not given)	0.2	0.005
COc1cc(CCc2cc(OC)c(C)cc2OC)c(OC)cc1C	-0.95	0.485
CCS(=O)(=O)N1CCN(c2cnn(-c3ccccc3)c(=O)c2Cl)CC1	0.6	0.02
COc1ccc(CNn2c(-c3ccc(Br)cc3)nc3ccccc3c2=O)cc1OC	/	0.145
Cc1oc(-c2ccccc2)nc1C(=O)OCc1cc(=O)n2ccsc2n1	0.8	/
CC(=O)C1=NN(c2ccc(Cl)cc2)C(c2cccs2)N1c1ccccc1 (stereo not given)	/	-0.335
CC(=O)Oc1cc(C)cc2oc(=O)cc(-c3ccccc3)c12	1.6	-0.255
Cc1ccc(SCCSc2ncccn2)cc1	-0.4	-0.005
COc1ccc(N2CCN(c3ncnc4sc(C(=O)N5CCC(C)CC5)c(C)c34)CC2)cc1	/	0.555
O=C1NC2(CCc3ccccc32)C(=O)N1CN1CCN(S(=O)(=O)/C=C/c2ccccc2)CC1 (stereo not given)	-0.8	/
O=C1C=C(c2ccccc2)C[C@H](c2ccccc2)[C@H]1n1nnc2ccccc21	/	-0.155
Nc1nc(SCC(=O)c2cccs2)n[nH]1	0.75	/
CCn1c(=O)c2ccccc2n2c(=S)[nH]nc12	1.3	/
CCOC(=O)c1cc(C)n(CC2CCC(C(=O)N3CCCC3)CC2)c1C (stereo not given)	-0.7	0.015
CN(C)/C=N/S(=O)(=O)c1ccc(Oc2c(Cl)c(Cl)nn2C)cc1	/	0.155

Taken from the listing (5 entries):
SMILES	AID504770	Ba CapD inh
CC(Oc1ccccc1)C(=O)N1CC(=O)Nc2ccc(F)cc2C1c1ccccc1 (stereo not given)	0.6	-0.535
CSc1ncc(C(=O)NCc2cccc(C)c2)c(C)n1	0.9	0.045
O=C1CCc2cc(S(=O)(=O)N3CCCC3C(=O)N3CCN(c4ccc(Cl)cc4)CC3)ccc2N1 (stereo not given)	0.2	0.005
COc1cc(CCc2cc(OC)c(C)cc2OC)c(OC)cc1C	-0.95	0.485
CCS(=O)(=O)N1CCN(c2cnn(-c3ccccc3)c(=O)c2Cl)CC1	0.6	0.02

(more compounds)
SMILES	AID504770	Ba CapD inh
COc1ccc(CCNC(=O)c2n[nH]c(=O)c3ccccc23)cc1OC	-0.45	-0.2&24.4
Cc1nnc(SCC(=O)n2c3ccccc3c3ccccc32)s1	0.1	/
CCC(=O)Nc1nnc(C)s1	-0.55	/
CCN1CCCC(N2C(=O)OC(C)(C)C2(C)O)C1 (stereo not given)	/	-0.545
CC[n+]1c(C)sc2ccc(CC(=O)[O-])cc21	-0.4	-0.355
Nc1nccnc1C(=O)O	-0.7	/
O=c1cc(-c2c(F)c(F)c(F)c(F)c2F)oc2c(F)c(F)c(F)c(F)c12	2.6	/
CCOC(=O)c1ccoc1COC(=O)/C=C/c1ccc(SC)cc1	-0.15	/
O/N=C1\CCC\C1=C/c1ccco1	-0.65	-2.44
Cc1nc(-c2ccc([N+](=O)[O-])cc2)c(-c2ccccc2)o1	/	-3.13
Cc1ccc(NC(=O)C23C(=O)Oc4ccccc4C2C3(C)C(=O)c2ccccc2)cc1 (stereo not given)	0.75	0.28
COc1ccc(-n2nc(C(=O)NCC(=O)NCC3CCCO3)c3ccccc3c2=O)c(OC)c1 (stereo not given)	-0.85	0.23
COc1ccccc1C1CCN(C(=O)c2ccc(F)cc2)CC1	/	-0.005
CCOC(=O)C1CCN(S(=O)(=O)c2cc(Br)cc3c2N(C(C)=O)C(C)C3)CC1 (stereo not given)	0.55	0.535
O=C1c2cccnc2C(=O)N1CCc1ccc(S(=O)(=O)NC2CCCCCC2)cc1	0.75	-0.455
O=C(CSc1ccccc1)OCc1nc2ccsc2c(=O)[nH]1	-2.25	/
Cc1sc(NC(=O)c2ccccc2)c(C(c2cccs2)N2CCN(C)CC2)c1C (stereo not given)	0.95	/
Cc1nn2c(nc(Cl)c3ccccc32)c1Cl	-1.05	/
CC(Sc1nc2ccccc2n1CCC#N)C(=O)N1CCCC1 (stereo not given)	-0.8	/
CNc1nc(OC)nc(N(C)C)n1	1.05	0.515
NC1=NC(=O)/C(=C/c2ccccc2OCc2ccccc2Cl)S1	/	0.22
